Screens (PubChem)
AID504770: growth inhibition of E. coli YBA685, primary screen, V. cholerae RctB inhibitors. z-score (test concentration not listed). 0.27% of 130,000 active. E. coli YBA685 rctB-dependent plasmid, OD600 growth, 3 h; hits give low values;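 active means z-score under -2 on both plates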;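 further: wells of about 30 µL received 100 nL stock; score is relative to mean and SD of the test wells; the first replicate is given; strong numbers were not always called active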
Ba CapD inh: Bacillus anthracis CapD inhibitors, primary screen, biochemical, fluorescence intensity; CapD gamma-glutamyltranspeptidase (Bacillus anthracis Ames Ancestor); purified CapD enzyme, fluorescence intensity read-out; hits give low values; some hits fall short of the stated cut; z-score (no concentration beside the values); 0.23% of 140,000 active;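 active means z-score under -4 in either of two replicates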;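 further: stock transfer was 100 nL into about 40 µL; score is relative to mean and spread of the plate; one replicate is shown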
* marks the source's active call; other numbers are inactive results; i = inactive; x = no result given; & = joins results of further samples.

SMILES	AID504770	Ba CapD inh
O=C(Nc1ccc(Cl)cc1Cl)C1CCC(=O)N1Cc1ccccc1Cl (stereo not given)	x	-0.55
Cc1cc(OCC(=O)Nc2ccc3c(c2)OCO3)c2ccccc2n1	-0.1	1.4
S=c1[nH]nc(C2(c3ccccc3)CCCC2)o1	-1.1	0.08
CN(C)S(=O)(=O)c1ccc(C(=O)OCC(=O)C(C)(C)C)cc1	-0.75	x
CC(=O)C1=NN(c2ccc(Br)cc2)C2(S1)c1ccccc1C(c1ccccc1)=NN2c1ccccc1 (stereo not given)	x	0.81
COc1ccc(N(CC(=O)Nc2ccc(S(=O)(=O)N3CCCCC3)cc2)S(=O)(=O)c2ccccc2)c(OC)c1	x	-0.48
CCOC(=O)c1ccc(Nc2ncnc3c2cnn3-c2ccc(C)cc2C)cc1	x	6.7
O=C(Nc1ncc(Cc2cc(Cl)ccc2Cl)s1)C1CCCO1 (stereo not given)	-0.65	i
C/C(=C/c1cccc2ccccc12)[N+](=O)[O-]	x	-1.1
Cc1ccc(Cl)c(Nc2ccccc2C(=O)O)c1Cl	x	-0.21&-0.38
O=C(NCCN1CCCCCC1)c1ccc2c(c1)ncn2C1CCCCC1	1.6	-1.1
c1coc(CCC2=NCCn3cccc32)c1	-1.2	2.6
CC1Sc2ccc(C(=O)N(C)Cc3cccnc3)cc2NC1=O (stereo not given)	0.05	x
CC(C)(C)NC(=O)CN1CCN(C(=S)Nc2ccccc2F)CC1	-0.4	x
COC(=O)C1=C(C(=O)OC)SC(=C2C(=S)C(C)(C)N(C(=O)c3ccc(-c4ccccc4)cc3)c3ccccc32)S1	x	-0.43
CN1CCN(c2nc(-c3ccccc3)c3ccccc3n2)CC1	-0.15	3.1
CC(=O)Nc1ccc(C(F)(F)F)cc1Br	x	0.005
COc1ccccc1C1=NC(c2ccccc2)CN1c1ccccc1 (stereo not given)	-0.65	-0.72
CCOC(=O)c1nnn2c3ccccc3c(=O)n(Cc3ccc(Cl)cc3)c12	0.85	0.3
COC(=O)C(C)n1cnc2scc(-c3ccc(OC)cc3)c2c1=O (stereo not given)	-0.2	5.8
O=S(=O)(NC1CCCC1)c1ccc(S(=O)(=O)N2CCN(c3ncccn3)CC2)cc1	0.4	3.6
C=CCOC(=O)C1=C(C)NC(=O)C12C(C(=O)OC)=C(N)Oc1ccccc12 (stereo not given)	0.1	x
N#CC1=C(N)OC2=C(C(=O)CC(c3ccco3)C2)C1c1ccc(OCc2ccccc2F)cc1 (stereo not given)	x	0.33
CCN(c1ccccc1)C1SC(=O)N(c2ccccc2)C1=O (stereo not given)	-0.05	x
O=C(Nc1cccnc1)c1ccc2c(c1)[nH]c(=O)n2CCc1ccccc1	-0.6	x
Cc1ccc(S(=O)(=O)N2CCCCC2)cc1-n1c(C)ccc1C	-0.65	0.39
COCC(C)NS(=O)(=O)c1ccc(OC)cc1 (stereo not given)	x	0.46
CCCCc1nnc2n1N=C(c1ccc(Br)cc1)CS2	x	0.05
COc1cccc([C@@H]2CCN(CC(=O)Nc3cc(Cl)ccc3OC)C[C@H]2O)c1	-0.35	x
CCOc1ccc(NC(=O)c2ccc(F)c(S(=O)(=O)N3CCN(c4cccc(C)c4C)CC3)c2)cc1	x	-1.5

Ordered by SMILES length (low to high): part of the list above
SMILES	AID504770	Ba CapD inh
c1coc(CCC2=NCCn3cccc32)c1	-1.2	2.6
CC(=O)Nc1ccc(C(F)(F)F)cc1Br	x	0.005
COCC(C)NS(=O)(=O)c1ccc(OC)cc1 (stereo not given)	x	0.46
Cc1ccc(Cl)c(Nc2ccccc2C(=O)O)c1Cl	x	-0.21&-0.38
COc1ccccc1C1=NC(c2ccccc2)CN1c1ccccc1 (stereo not given)	-0.65	-0.72
CC1Sc2ccc(C(=O)N(C)Cc3cccnc3)cc2NC1=O (stereo not given)	0.05	x
CC(C)(C)NC(=O)CN1CCN(C(=S)Nc2ccccc2F)CC1	-0.4	x
COC(=O)C(C)n1cnc2scc(-c3ccc(OC)cc3)c2c1=O (stereo not given)	-0.2	5.8
CCOC(=O)c1nnn2c3ccccc3c(=O)n(Cc3ccc(Cl)cc3)c12	0.85	0.3
C=CCOC(=O)C1=C(C)NC(=O)C12C(C(=O)OC)=C(N)Oc1ccccc12 (stereo not given)	0.1	x
COc1cccc([C@@H]2CCN(CC(=O)Nc3cc(Cl)ccc3OC)C[C@H]2O)c1	-0.35	x
O=S(=O)(NC1CCCC1)c1ccc(S(=O)(=O)N2CCN(c3ncccn3)CC2)cc1	0.4	3.6
N#CC1=C(N)OC2=C(C(=O)CC(c3ccco3)C2)C1c1ccc(OCc2ccccc2F)cc1 (stereo not given)	x	0.33
CCOc1ccc(NC(=O)c2ccc(F)c(S(=O)(=O)N3CCN(c4cccc(C)c4C)CC3)c2)cc1	x	-1.5
COC(=O)C1=C(C(=O)OC)SC(=C2C(=S)C(C)(C)N(C(=O)c3ccc(-c4ccccc4)cc3)c3ccccc32)S1	x	-0.43

Next section.
SMILES	AID504770	Ba CapD inh
COC(=O)C1C(=O)C2=C(CC1C)NC(=O)CC2c1cccc(C)c1 (stereo not given)	0.7	-0.26
Nn1cnc2sccc2c1=O	-0.35	x
COc1ccc(NC(=O)c2ccc(-n3cccn3)c([N+](=O)[O-])c2)cc1Cl	x	-0.84
O=C1c2cnn(-c3ccccc3Cl)c2CC2c3ccccc3CCN12 (stereo not given)	x	-0.45
COC(=O)Cc1c(C)c2ccc(OCC(=O)N(C)C)c(C)c2oc1=O	0.7	109
OC(c1ccccc1)(c1ccccc1)C(F)(F)F	0	-0.44
CC(Nc1ccc(Oc2ccccc2)cc1)C(=O)N1CCCC1 (stereo not given)	1.3	x
N#CCNC(=O)C(Sc1ccccc1)c1ccccc1 (stereo not given)	-0.2	0.36
Cc1ccc(C(=O)Nc2nc3ccccc3n2CCN2CCOCC2)cc1	x	0.95
O=C(O)CSCc1cccc2ccccc12	x	0.15
CCOc1ccc(NC(=O)c2ccc(N3CC4CC(C3)c3cccc(=O)n3C4)c(NC(=O)c3ccc(OC)cc3)c2)cc1 (stereo not given)	x	-0.86
Cc1cc(-c2ccccc2)[nH]c(=O)c1S(=O)(=O)c1ccccc1	-1.4	13
CCC(CC)C(=O)NCCc1cc2c(C)ccc(C)c2[nH]c1=O	0.05	0.45
CCC(=O)c1cc(Cl)cc(Cl)c1O	-0.45	-0.79
Cc1ccc2nc(C3=C(O)c4ccccc4C3=O)ccc2c1	x	1.3
Cc1nc(SCC(=O)N2c3ccccc3CCc3ccccc32)n[nH]1	-0.6	x
COc1cccc(CNc2nc3ccccc3n2CCN2CCOCC2)c1OC	1	0.25
O=C(Cn1c2ccccc2c(=O)c2ccccc21)Nc1ccc(Br)cc1OC(F)(F)F	x	9.1
Cc1nc(CC(=O)OCc2nnc(-c3c(-c4ccccc4)noc3C)o2)cs1	-0.4	x
Cc1noc(C)c1CN1CCC(c2nc3ccccc3s2)CC1	-1.6	x
O=C(CSc1nc2ccccc2o1)OCc1ccccc1	1.1	0.57
CCSc1nc2ccccc2s1	1.2	0.8
CCOc1ccc(NC(=O)CSC2=C(C#N)C(c3ccc([N+](=O)[O-])cc3)CC(=O)N2)cc1 (stereo not given)	x	0
O=S(=O)(c1cc(Cl)ccc1Cl)N1CCCCCCC1	x	0.045
COc1cccc(CN2COc3ccc4c(C)cc(=O)oc4c3C2)c1	-1.8	99
Cc1ccc(N(C)S(=O)(=O)c2ccc(-c3cc(C(F)(F)F)no3)s2)cc1	-0.2	-0.32
COc1ccc(C(=O)O/N=C/c2ccc(Sc3ccc(Cl)cc3)nc2)cc1	x	-0.32
Cc1cc(C(=O)COc2ccc(-c3nnco3)cc2)c(C)n1-c1ccc2c(c1)OCCO2	-0.3	x
CSC1=NC2(C)CCCCC2c2c1ccc1ccccc21 (stereo not given)	-0.2	0.37
Fc1ccccc1OCCCCSc1ncccn1	2.2	-0.8
CCc1cccc(NC(=S)N(CCC(C)C)C(C)c2cccs2)c1 (stereo not given)	0.15	-0.12
CC(=O)c1ccc(C#CC(C)(C)O)s1	x	-0.95
CC(=O)N1CCC(N(C(=O)COCC(F)(F)F)C2CC2)CC1	x	-0.5
O=C(COC(=O)c1ccc2ccccc2n1)NC(c1ccccc1)c1ccccc1	-0.7	1.1
O=S(=O)(c1ccccc1)c1nnn2c1nc(Nc1ccccc1)c1sccc12	-0.75	10
COc1ccccc1NC(=O)COc1ccc(Oc2ccccc2)cc1	2	0.44
O=C(COc1ccc(Nc2ccccc2)cc1)OCC(=O)N1CCCCC1	-1.8	x
O=C(NNC(=O)c1ccccc1-n1cccc1)c1ccc(Cl)cc1Cl	x	0.22
COc1ccc(C2c3sc(=O)[nH]c3SCC2/C=N/NC(N)=S)cc1 (stereo not given)	0.4	x
CC1CCN(C(=O)c2cccc3c2-c2ccccc2C3=O)CC1	0.55	-0.04
C=CCOn1c(=O)c(-c2ccc(OC)c(OC)c2)[n+]([O-])c2ccccc21	-0.5	-0.075
CCOc1ccc2ccccc2c1CNc1nnnn1CC	-0.4	7.5
Nc1cccc(Cl)c1O	-0.15	x
O=C(COC(=O)c1ccc(NC(=O)c2ccc(Cl)cc2)cc1)c1ccccc1	0.15	-0.41
CCOC(=O)[C@]1(C#N)[C@@H]2C=CC(C(N)=O)=CN2[C@@H](C(N)=O)[C@@H]1c1ccc(Cl)cc1	-1.2	-1.7
O=C(O)c1ccc(CSc2nnnn2C2CCCCC2)cc1	1	-0.02
COc1ccc2ncc(C(=O)NC3CCCC3)c(Cl)c2c1	-0.65	47
Cc1cc(C)nc(SCC(=O)NC2=NC(=O)C(C)S2)n1 (stereo not given)	0.1	3.8
COc1cc(C2N(C(C)=O)N=C(NC(C)=O)N2C(C)=O)cc(OC)c1OC (stereo not given)	-0.1	-0.01
Cc1cc(C(F)(F)F)c(C#N)c(SCC(=O)C(C)(C)C)n1	-0.75	x
O=C(CSc1ccc(-c2ccncc2)nn1)NCCc1ccccc1	-0.15	-0.12
Fc1ccc(C2Nc3ccc(Br)cc3C3C=CCC32)cc1 (stereo not given)	x	-0.17
COC(=O)c1ccc2c3c(cccc13)CC2	-0.75	48
Cc1ccc(NC(=O)c2ccc(Br)o2)cc1C	-0.9	0.12
O=C(COc1ccccc1)N=Nc1c(O)[nH]c2ccccc12	-0.45	x
COc1cc(C2C(C#N)=C(N)Oc3n[nH]c(-c4ccc(Br)cc4)c32)cc(OC)c1OC (stereo not given)	x	0.005
COc1cc(NC(=O)c2ccc(Br)o2)c(C(=O)O)cc1OC	0.3	0.42
CCOc1ccc(S(=O)(=O)Nc2ccc(-c3cn4ccccc4n3)cc2)cc1	x	51
Cc1cc(C)cc(Oc2c(C(F)(F)F)oc3c(CN4CCOCC4)c(O)ccc3c2=O)c1	x	-0.45
O=C(Cn1cc(/C=N/n2cnnc2)c2ccccc21)Nc1ccc2c(c1)OCO2	0.95	0.32

Next part
SMILES	AID504770	Ba CapD inh
CNC(C)c1ccco1 (stereo not given)	0.95	x
CCc1c(C#N)c(N)nc(SCC#N)c1C#N	-0.95	8.4
Fc1ccccc1OCCBr	-0.7	-0.07
Nc1ccc(N2CCCC2)cc1	-0.65	x
Cc1sc2nc(SC/C=C/c3ccccc3)nc(N)c2c1C	0.1	1.2
FC(F)(F)c1cc(-c2nc(CSc3ncccn3)no2)cc(C(F)(F)F)c1	x	-0.14
CC(=O)c1ccc(N2CCN(C(=O)C3CC3C(=O)O)CC2)cc1 (stereo not given)	x	1.3
COC(=O)c1ccccc1NC(=O)c1ccc(NC(=O)c2ccco2)cc1	-1.2	0.32
COC(=O)c1ccc2c(=O)n(CCCCCC(=O)NC3CCCCC3)c(=O)[nH]c2c1	-1.1	7.9
Cc1ccc(C(CC(=O)O)c2ccccc2)c(O)c1 (stereo not given)	0.8	0.3
CS(=O)(=O)Oc1ccc(C(C#N)c2ncc(C(F)(F)F)cc2Cl)cc1 (stereo not given)	x	-0.28
COc1ccc(C2CC(c3c(-c4ccccc4)c4cc(Br)ccc4[nH]c3=O)=NN2C(C)=O)c(OC)c1 (stereo not given)	x	1.3
CN1CCN(C(=O)/C=C/c2cccs2)CC1	1.1	i
O=C(Nc1nc2ccccc2[nH]1)Nc1ccccc1F	0.4	x
O=C(c1cn(-c2ccccc2)nc1-c1cccc(Cl)c1)N1CCOCC1	1.5	-0.55
N#C/C(=C\c1ccc(Cl)cc1)c1nc(-c2cc3cc(Br)ccc3oc2=O)cs1	x	0.71
Cn1c(=O)c2c(nc(NCc3ccccc3)n2Cc2ccc(Br)cc2)n(C)c1=O	x	0.85
Cc1nc2cc(-c3ccccc3)nn2c(C)c1CC(=O)NCc1ccccc1	-0.05	3.1
COC(=O)Cn1ncc(N2CC(C)OC(C)C2)c(Cl)c1=O (stereo not given)	-0.5	x
O=C(O)c1cc(N2C(=O)/C(=C/c3ccc(-c4ccc(Br)cc4)o3)C=C2c2ccccc2)ccc1Cl	x	0.89
Cc1nc(SCC(=O)Nc2ccc(C(N)=O)cc2)c(C#N)c(C)c1C	x	-0.8
CC(C)NC(=O)c1cc(C(=O)c2cc(Br)ccc2O)coc1=N	-0.35	x
O=C(Nc1nc2c(cc3c4c(cccc42)CC3)s1)c1ccc(S(=O)(=O)N2CCOCC2)cc1	x	0.1
O=[N+]([O-])c1ccc(N2CCCN(C(=S)Nc3ccc(F)cc3Br)CC2)nc1	x	0.05
CC1CCCC(C)N1CC(C)(C)NS(=O)(=O)c1ccccc1 (stereo not given)	0.8	0.025
CC(C)C(NC(=O)c1ccccc1)C(=O)NCc1ccccn1 (stereo not given)	-0.45	x
Cc1cc2c(cc1C)N(C(=O)c1ccccc1)C(C)(C)c1ssc(=S)c1-2	x	-0.64
N#CSCC(=O)c1ccc(Cl)c(Cl)c1	x	0.11
Nn1c(SCc2ccccc2Cl)nnc(CCC(=O)O)c1=O	-1.2	x
